Assay outcomes: PubChem BioAssay, several laboratories
RecA intein inh: blocks M. tuberculosis RecA intein splicing; cell-free RecA intein splicing, fluorescence; AID 2221; P9WHJ3; actives 0.75% (n = 290,000); inhibition, %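 (about 9 µM by stock and volumes)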; in the data active means inhibition above about 30%; inconclusive means no clear call, values can overlap the other calls;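 further: 0% = vehicle wells and 100% = reference inhibitor control wells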
Target sequence (P9WHJ3 whole entry, looked up): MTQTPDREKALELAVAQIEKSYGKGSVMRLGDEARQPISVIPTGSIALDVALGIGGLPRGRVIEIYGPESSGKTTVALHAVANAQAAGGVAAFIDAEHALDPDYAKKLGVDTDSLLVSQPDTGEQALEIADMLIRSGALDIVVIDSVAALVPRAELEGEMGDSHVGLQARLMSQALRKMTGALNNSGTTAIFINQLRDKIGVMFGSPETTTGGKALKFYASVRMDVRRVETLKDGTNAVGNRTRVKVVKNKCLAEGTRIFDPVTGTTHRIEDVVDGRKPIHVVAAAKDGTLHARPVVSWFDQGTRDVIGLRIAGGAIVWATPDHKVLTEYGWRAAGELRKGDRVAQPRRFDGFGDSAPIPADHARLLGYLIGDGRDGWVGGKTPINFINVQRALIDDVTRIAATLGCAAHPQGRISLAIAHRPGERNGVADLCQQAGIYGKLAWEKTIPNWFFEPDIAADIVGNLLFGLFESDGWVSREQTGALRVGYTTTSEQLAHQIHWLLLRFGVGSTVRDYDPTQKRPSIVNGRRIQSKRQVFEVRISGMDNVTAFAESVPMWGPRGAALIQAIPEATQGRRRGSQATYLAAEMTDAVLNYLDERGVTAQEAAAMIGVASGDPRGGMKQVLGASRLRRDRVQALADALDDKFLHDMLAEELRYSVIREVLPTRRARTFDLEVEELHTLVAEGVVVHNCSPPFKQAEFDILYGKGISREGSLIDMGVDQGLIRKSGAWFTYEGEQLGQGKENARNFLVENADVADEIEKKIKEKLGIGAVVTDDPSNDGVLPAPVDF
Arbovirus anti: arbovirus infection inhibition. arbovirus infection cell-based antiviral screen. actives 0.37% (n = 200,000). AID 1251. inhibition, % at 10 µM;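 active means inhibition from about 30%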;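 further: bluetongue infection of BSR cells; cell survival read as ATP light after 72 h; 0% = infected wells without compound and 100% = uninfected wells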
Mtb growth: M. tuberculosis H37Rv growth inhibitors, H37Rv strain (AID 1626); M. tuberculosis H37Rv growth inhibition; higher % means a stronger effect; inhibition, % at 10 µM; hits with a dose series show IC50 in µM; actives 0.95% (n = 220,000);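 active means confirmed in a dose series; inconclusive means inhibition above 80% but not taken into the dose series; inactive means below 80% or under 30% at every dose of the series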;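 further: bacteria incubated seven days before Alamar blue readout; 0% = bacteria only wells and 100% = bacteria with antibiotic wells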
Mtb bLac sens: beta-lactam sensitization of Mtb H37Rv | M. tuberculosis H37Rv growth with meropenem, percent inhibition; hits of this screen are not shown here | inhibition, % at 25 µM | actives 0.27% (n = 330,000);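 active means about 74% or more and at least 40 points above the plate without the antibiotic, then above 30% in a dose series; inconclusive means first-round hits that could not be retested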;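 further: growth measured after seven days incubation then overnight dye step; 0% = bacteria only wells and 100% = bacteria with antibiotic; twin plates without the antibiotic show which effects depend on it; some results filed as inactive read as strong as hits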
YopH inh: inhibitors of Yersinia enterocolitica YopH tyrosine phosphatase | fluorescence Ex485/Em525 | inhibition, %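 (about 10 µM by stock and volumes)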 | AID 898 | actives 0.16% (n = 140,000);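 active means inhibition of 50% or more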;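 further: controls were vehicle for no effect and minimum signal wells for full effect; inactives centre near -20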
Arbovirus anti repeat: also measured in Arbovirus anti; calls as there; inhibition, %; measured here: 10K subset replicate screen; many hits read low in the repeat;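 first of two repeat runs on a subset; 0% = infected and 100% = uninfected wells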
* marks the source's active call; other numbers are inactive results; ? = inconclusive; nt = not tested or not shown.

SMILES	RecA intein inh	Arbovirus anti	Mtb growth	Mtb bLac sens	YopH inh	others
Cc1sc2nc(SCC(=O)N3CCOCC3)[nH]c(=O)c2c1C	-0.4	6	0%	0	-28	Arbovirus anti repeat=3
O=C(O)CCn1cc(C=C2C(=O)NC(=S)NC2=O)c(-c2cccc(Br)c2)n1	-2.0	4	2%	4	nt
O=C(NCC1CCCN1S(=O)(=O)c1cccs1)c1cccc([N+](=O)[O-])c1 (configuration not stated)	1.2	nt	nt	-10	nt
COCCNC(=O)C12CC3CC(CC(Cl)(C3)C1)C2	-3.4	nt	-5%	-11	nt
Cn1c(=O)c2ncn(CC(=O)Nc3nc(-c4ccc(Cl)cc4)cs3)c2n(C)c1=O	3.5	10	2%	27	nt
Cc1cc(=O)oc2cc(OCC(=O)OCc3nnc(-c4ccccc4)o3)ccc12	2.2	-1	-4%	-12	-42
O=C1C2CC=CCC2C(=O)N1c1nc2n(n1)C(c1ccccc1)CC(c1ccccc1)N2 (configuration not stated)	0.7	3	-1%	-21	-8
COc1ccc(NC(=O)CSc2nnc3ccc(-c4ccccn4)nn23)c(OC)c1	-3.7	nt	nt	-4	nt
CCOC(=O)c1nn(-c2ccc(OCC)cc2)c(C)c1C(C)=O	2.6	4	3%	-2	11
COc1ccccc1N1CCN(C(=O)C2CCN(S(=O)(=O)c3ccc(Cl)cc3)CC2)CC1	nt	-3	0%	-4	4
Cn1nc(C(=O)Nc2c(-c3ccccc3)nc3sccn23)c2ccccc2c1=O	3.0	-12	0%	4	-22
Cn1nnc(NC(=O)c2cccc(OCc3ccccc3)c2)n1	-1.9	-1	8%	-4	1
O=C(CSc1ncn[nH]1)c1ccccc1	6.4	9	7%	4	-35
Cc1nc(N2CCOCC2)[nH]c(=O)c1C(O)C(Cl)(Cl)Cl (configuration not stated)	-3.4	nt	-2%	4	nt
Cc1ccc2nc(SCC(=O)Nc3ccc4c(c3)OCCO4)nc(=O)n2c1	-1.5	nt	nt	-5	nt
COc1cccc(C(C(=O)NC(C)(C)C)N(C(=O)CCC(=O)Nc2cc(C)on2)C(C)(C)C)c1OC (configuration not stated)	-1.7	-1	-5%	-3	-3
Cc1nc(-c2ccccc2)nn1-c1ccc([N+](=O)[O-])cc1	-1.8	nt	nt	-2	nt
CCCCCC(O)(CCCCC)C(=O)NNc1ccccc1	0.7	-30	?	96	22
O=C(NC1CCCCC1)C(c1ccccc1F)N(Cc1ccco1)C(=O)Cn1nnc2ccccc21 (configuration not stated)	0.3	-10	nt	8	-21
CN(/N=C/c1ccc2c(c1)OCO2)c1nc(N2CCOCC2)nc(N2CCOCC2)n1	-3.6	0	10%	-1	nt
CC(=O)/C(=N/Nc1ccc(Br)cc1)N1CCCc2ccccc21	14	nt	12%	75	nt
Nc1nc2ccc(C(=O)NCCOC(=O)C3CCCCC3)cc2s1	2.6	-3	2%	1	nt
Cc1ccc2c(CN3CCC(C)CC3)cc(=O)oc2c1C	2.1	nt	nt	2	nt
Cc1[nH]nc2nc(SCC(=O)NC3CCCCC3)n(-c3ccc(Br)cc3)c(=N)c12	2.3	nt	nt	-2	nt
O=C(O)CCn1cc(C2CC(c3ccccc3)=NN2c2ccccc2)c(-c2ccccc2)n1 (configuration not stated)	-81	-19	8%	4	nt

Some of these compounds in order of SMILES length, ascending:
SMILES	RecA intein inh	Arbovirus anti	Mtb growth	Mtb bLac sens	YopH inh	others
CCCCCC(O)(CCCCC)C(=O)NNc1ccccc1	0.7	-30	?	96	22
Cc1sc2nc(SCC(=O)N3CCOCC3)[nH]c(=O)c2c1C	-0.4	6	0%	0	-28	Arbovirus anti repeat=3
Cc1ccc2nc(SCC(=O)Nc3ccc4c(c3)OCCO4)nc(=O)n2c1	-1.5	nt	nt	-5	nt
COc1ccc(NC(=O)CSc2nnc3ccc(-c4ccccn4)nn23)c(OC)c1	-3.7	nt	nt	-4	nt
CN(/N=C/c1ccc2c(c1)OCO2)c1nc(N2CCOCC2)nc(N2CCOCC2)n1	-3.6	0	10%	-1	nt

Quoted at random: six entries already listed
SMILES	RecA intein inh	Arbovirus anti	Mtb growth	Mtb bLac sens	YopH inh	others
COc1ccccc1N1CCN(C(=O)C2CCN(S(=O)(=O)c3ccc(Cl)cc3)CC2)CC1	nt	-3	0%	-4	4
COc1ccc(NC(=O)CSc2nnc3ccc(-c4ccccn4)nn23)c(OC)c1	-3.7	nt	nt	-4	nt
Cn1nnc(NC(=O)c2cccc(OCc3ccccc3)c2)n1	-1.9	-1	8%	-4	1
Cc1nc(-c2ccccc2)nn1-c1ccc([N+](=O)[O-])cc1	-1.8	nt	nt	-2	nt
O=C1C2CC=CCC2C(=O)N1c1nc2n(n1)C(c1ccccc1)CC(c1ccccc1)N2 (configuration not stated)	0.7	3	-1%	-21	-8
COCCNC(=O)C12CC3CC(CC(Cl)(C3)C1)C2	-3.4	nt	-5%	-11	nt

More entries follow.
SMILES	RecA intein inh	Arbovirus anti	Mtb growth	Mtb bLac sens	YopH inh	others
CC12CCC(=O)N1C(C(=O)Nc1nc(-c3cc(F)ccc3F)cs1)CS2 (configuration not stated)	-1.6	nt	nt	-6	nt
C/C(=N\NC(=O)c1ccco1)c1cccc2ccccc12	-2.7	nt	nt	1	nt
CCOc1ccc(S(=O)(=O)N2CCC(C(=O)NC3CCCC3)CC2)cc1	-0.4	nt	nt	3	nt
Cc1cc(C)nc(N2CCC(C(=O)NC3CCCCCC3)CC2)n1	-7.5	nt	-5%	-6	15
COc1ccc(N2CCN(C(=O)CNC(=O)c3cccs3)CC2)cc1	0.2	nt	nt	8	nt
CCC(=O)N1c2ccc(S(=O)(=O)NCCc3ccc(C)cc3)cc2CC1C (configuration not stated)	2.2	nt	nt	-2	nt
CSc1ccc(S(=O)(=O)N2CCCC2)cc1	-1.6	0	10%	-5	26
CCOC(=O)C(C)Sc1nc2c(c(-c3cccs3)c1C#N)CCC2 (configuration not stated)	-7.7	10	17%	43	-34
Cc1ccsc1C(=O)N1CCN(c2ccccn2)CC1	0.1	nt	nt	-4	nt
Cc1ncc(CSc2ccc(Cl)cc2)c(CO)c1O	-1.5	nt	nt	5	nt
C=CCN(CC=C)C(=S)NC(=O)/C=C/c1ccccc1	5.6	4	1%	0	-19
COc1ccc(NC(=S)N2CCN(S(C)(=O)=O)CC2)cc1OC	3.1	nt	nt	4	nt
Cc1cccc(NC(=O)NC(=O)c2ccccc2)n1	-3.4	4	-6%	-5	nt
O=C(NCC1CCCO1)c1cc(-c2ccccc2)nc2ccc(Br)cc12 (configuration not stated)	-0.3	nt	nt	29	nt
O=[N+]([O-])c1ccc2[nH]c3c(c2c1)CCCC3O (configuration not stated)	-1.6	0	-11%	-1	nt
Cc1nn(-c2ccccc2)cc1C(=S)Nc1ccccc1	nt	21	0%	-7	-29
Cc1c(C(=O)N(Cc2ccc(N(C)C)cc2)CC2CCCO2)oc2ccccc12 (configuration not stated)	9.5	nt	nt	9	nt
CNc1ccccc1C(C)(C)c1cc(-c2cccc(OC)c2)no1	-2.2	32*	3%	1	nt
COc1ccc(OC)c(N/C(C)=C/C(=O)c2ccccc2)c1	2.6	-5	86%	77	-26
CC(C)CCNC(=O)C1CCC(CNS(=O)(=O)c2cccc3nsnc23)CC1 (configuration not stated)	-2.5	nt	nt	2	nt
COc1ccc(-c2nnc(SC3CCOC3=O)n2C2CCCCC2)cc1OC (configuration not stated)	-0.1	-3	-3%	-4	-2
CN(CCNC(=O)c1ccc(CS(=O)(=O)c2c(Cl)cccc2Cl)o1)CCc1ccccc1	0.2	nt	nt	6	nt
CN1C(=O)/C(=C\c2ccc(OC(=O)c3ccco3)cc2)SC1=S	-0.3	nt	nt	18	nt
C=CCN1C(=O)C2(C(C(=O)OCC)=C(N)Oc3c2c(=O)oc2ccccc32)c2ccccc21 (configuration not stated)	3.4	1	-4%	-5	29
COc1ccc(NC(=O)C2CCCN2C(=O)NCc2ccccc2)c(OC)c1 (configuration not stated)	nt	0	-15%	-1	-42

Among those listed so far, two contain a COOH group.
SMILES	RecA intein inh	Arbovirus anti	Mtb growth	Mtb bLac sens	YopH inh	others
O=C(O)CCn1cc(C=C2C(=O)NC(=S)NC2=O)c(-c2cccc(Br)c2)n1	-2.0	4	2%	4	nt
O=C(O)CCn1cc(C2CC(c3ccccc3)=NN2c2ccccc2)c(-c2ccccc2)n1 (configuration not stated)	-81	-19	8%	4	nt

Further structures
SMILES	RecA intein inh	Arbovirus anti	Mtb growth	Mtb bLac sens	YopH inh	others
CC1(C)CC(=O)C(C=NCCN2CCN(C(=O)c3ccc(F)cc3)CC2)=C(O)C1	1.1	1	-17%	19	-10
O=C(NCCNC(=O)c1ccccc1Br)c1ccccc1Br	-0.6	nt	nt	-1	nt
Fc1ccc2nc(Nc3nc4c(s3)CCCC4)sc2c1	4.1	3	-6%	2	3
CCn1c(-c2ccccc2O)n[nH]c1=S	2.0	-5	-9%	-3	-34	Arbovirus anti repeat=1
CCOC(=O)c1ccc(NC(=O)CSc2nc(SC)ns2)cc1	nt	13	?	11	-14
COc1ccc(S(=O)(=O)NC(CC(=O)NCCc2ccc(OC)c(OC)c2)c2ccco2)cc1 (configuration not stated)	-1.2	6	-2%	-4	-52
O=C(Nc1ccccc1F)c1ccc(-c2cccc([N+](=O)[O-])c2)o1	-2.0	nt	nt	3	nt
COC(=O)c1cc2ccsc2n1Cc1cc(=O)n2ccccc2n1	-1.1	-3	6%	9	-43
COC(=O)c1cc(NC(=O)CSc2nnc(CN3CCOCC3)n2C)ccc1Cl	-3.4	9	-18%	-12	-17
CC(C)Sc1nc2c(c(=O)[nH]1)C(c1cccs1)C1=C(CC(C)(C)CC1=O)N2 (configuration not stated)	5.7	18	1%	-3	-46
COc1ccc(OCCCC(=O)N(C)CC(=O)Nc2c(C)cccc2C)cc1	2.7	nt	nt	-17	nt
COc1ccc(Br)cc1C(=O)Nc1cccc(C)c1	0.9	6	1%	7	-14
O=C(CNC(=O)c1ccccc1C(F)(F)F)N/N=C/c1cccs1	-0.2	nt	nt	-3	nt
CC(C)(C)C(=O)Nc1ccccc1N1CCN(C(=O)c2ccc(Cl)cc2)CC1	3.4	4	0%	-4	-81
CC1CC(C)CN(CCCNC(=O)CN2C(=O)CSc3ccc(S(=O)(=O)N4CCCCC4)cc32)C1 (configuration not stated)	-7.4	nt	nt	1	nt
COc1cc(F)ccc1CN1CCC(C(=O)Nc2ccc(Oc3ccccc3)nc2)CC1	0.8	nt	nt	5	nt
CCOC(=O)c1sc(NC(=O)Nc2ccc(Cl)cc2)cc1C	8.2	-16	77%	nt	-30
COc1cccc(CN2CC(C(=O)NCCCc3ccc(C)cc3)CCC2=O)c1 (configuration not stated)	4.7	nt	nt	1	nt
CN(CC(=O)Nc1cccc(F)c1)C(=O)Cn1cnc2c1c(=O)n(C)c(=O)n2C	-2.2	nt	nt	-5	nt
CCOc1ccc2c(C)c(C(=O)O)oc2c1OCC	-0.7	12	4%	-5	-49
Cc1ccc(CNC(=O)Nc2ccccc2)cc1	-0.7	-8	3%	-1	-15
Cc1ccc(CSc2nnc(SCC(=O)N/N=C/C=C/c3ccccc3[N+](=O)[O-])s2)cc1	-2.3	1	17%	-1	-7
Cc1ccc(-c2nnc(Nc3ccc4c(c3)OCO4)c3ccccc23)cc1S(=O)(=O)NCCO	3.6	-23	-5%	-4	-13
C#CCOCCOCCOCCNc1nc(N2CCN(C(=O)CCCCCCCCCCNC(=O)[C@H](CO)n3cc(CCCSC)nn3)CC2)nc(N2CCN(C(=O)CCCCCCCCCCNC(=O)[C@H](CCCCN)n3cc(C[C@@H](C)CC)nn3)CC2)n1	1.4	nt	nt	93	nt
CCOC(=O)CNC(=O)C(CC(C)C)NC(=O)C1CCCCC1 (configuration not stated)	-1.4	11	-4%	7	-18
CC(C)[C@H](Nc1nc(-c2ccccc2)nc2c1oc1ccccc12)C(=O)O	0.3	0	6%	0	0

This is a subset (hit frequency here may not be typical).
